High-throughput results: PubChem BioAssay, ICCB-Longwood Screening Facility, Harvard Medical School
RVFV N-RNA inh: inhibitors of Rift Valley Fever Virus nucleocapsid-RNA interaction. P21700. RVFV N-RNA binding, fluorescence polarization; hits give low values. % bound, % (test concentration not listed). 20,000 compounds, 0.1% hits;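 active = between 0 and 58% in either replicate with normal brightness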;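 note: 100 nL library stock added to about 12 µL; 100% = protein and probe without compound and 0% = probe alone; numbers are from one replicate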
Target sequence (P21700 whole entry, looked up): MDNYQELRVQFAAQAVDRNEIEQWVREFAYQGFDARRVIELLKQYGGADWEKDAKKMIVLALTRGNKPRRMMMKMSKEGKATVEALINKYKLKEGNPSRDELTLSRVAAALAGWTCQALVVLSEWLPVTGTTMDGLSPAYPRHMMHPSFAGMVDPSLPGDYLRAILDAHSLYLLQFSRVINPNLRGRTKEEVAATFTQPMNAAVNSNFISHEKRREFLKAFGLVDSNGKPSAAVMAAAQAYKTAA
* hit, by the source's call; & = joins results of further samples. Not all compounds are listed. The share of hits here may be higher or lower than overall.

SMILES | RVFV N-RNA inh
CC(CC(=O)N1CCOCC1)c1ccccc1 (configuration not stated) | 110
N#C/C(=C/c1ccc(-c2cccc(C(F)(F)F)c2)o1)c1ccc(C#N)cc1 | 95
O=C(O)CCc1nc2c3c4c(sc3ncn2n1)CCCC4 | 92
C=CCOc1cccc(C(=O)Nc2ncn[nH]2)c1 | 99
O=C(Nc1nnc(-c2ccc3c(c2)OCCO3)o1)c1ccc(NS(=O)(=O)c2ccccc2)cc1 | 100
O=C(/C=C/c1ccc(Cl)cc1)N1CCN(c2ccccc2)CC1 | 88
CC(C)(C)c1cc(C=C(C#N)C#N)cc(Br)c1O | 117
CCOC(=O)c1[nH]c(C)c(S(=O)(=O)NC2CCCCNC2=O)c1C (configuration not stated) | 86
CCOC(=O)c1oc2ccccc2c1NC(=O)CC | 97
CCOC(=O)c1ccc(NS(=O)(=O)N2CCOCC2)cc1 | 100
Cc1cc(C(=O)Nc2cccc(COC(=O)c3cc(C)on3)c2)no1 | 93
CCNS(=O)(=O)c1ccc(NC(=O)c2c(-c3ccccc3)noc2C)cc1 | 100
COc1ccc(CC(=O)Nc2c(C)nc3cc(C)ccn3c2=O)cc1 | 95
CC1(C)N(O)C2=C(N=O)CCC(N=O)=C2N1O | 92
CC(C(N)=O)N1c2cccc3cccc(c23)S1(=O)=O (configuration not stated) | 95
CC1(C)C2CC=C(CN3CCN(c4ccccc4)CC3)C1C2 (configuration not stated) | 89
CCOc1ccccc1C(=O)Nc1cccc(-c2ccc(N3CCOCC3)nn2)c1 | 96
COc1cc(-c2nc3ccccc3c(=O)[nH]2)cc(Cl)c1O | 103
Cn1ncc(C(=O)O/N=C(\c2ccccc2)c2ccccc2N)c1-n1cccc1 | 89
C(C=Cc1ccn[nH]1)=Cc1ccccc1 | 87
COc1ccc(-c2nc3scc(CCNC(=O)/C=C/c4ccco4)n3n2)cc1 | 110
O=c1[nH][nH]c(=S)n1Cc1ccco1 | 93
Cc1ccc(S(C)(=O)=NS(=O)(=O)c2cccc3nsnc23)cc1 (configuration not stated) | 97
Cc1nnc(-n2cnc3ccccc32)c2ccccc12 | 97
O=C(NNc1cc(Cl)ccc1Cl)C1CCCS1 (configuration not stated) | 90
Carrying on:
SMILES | RVFV N-RNA inh
CN(C)Cc1c(O)[nH]c(=S)[nH]c1=O | 104
CSC1=N/C(=C\c2ccc(Cl)cc2)C(=O)N1N(C)C | 91
COC(=O)c1sc(SC)c(-c2ccn(C(=O)c3ccc(Cl)cc3)n2)c1C | 84
Cc1cc(C)c2c(CC(=O)N(CCC#N)Cc3cccnc3)coc2c1 | 96
CC(NC(=O)c1ccccc1)C(=O)NC1=NCCS1 (configuration not stated) | 104
N#CCN(CC#N)C(=O)c1cccc(Cl)c1 | 89
Fc1ccc(C2CC(c3ccco3)=Nc3ccccc3S2)cc1 (configuration not stated) | 101
N#CC(C(=O)NCc1ccc2c(c1)OCO2)c1ccccc1 (configuration not stated) | 95
N#Cc1ccc2c(c1)nc1c3ccc4c5c(ccc(c(=O)n21)c53)C(=O)NC4=O | 80
CC(C)c1ccc(Cc2nnc(NN3CCOCC3)[nH]c2=O)cc1 | 93
CCc1nc(Cc2nc3ccccc3[nH]2)no1 | 95
CC1(C)CC(=O)C2=C(C1)Nc1ccccc1NC2c1ccccc1 (configuration not stated) | 90
CCOc1ccc(S(=O)(=O)NCCSc2ccccc2)cc1 | 95
[O-][n+]1onc2c(-c3ccccc3)nnc(-c3ccccc3)c21 | 92
Cc1cc(C)c(C(N)=O)c(SCC(=O)c2ccccc2)n1 | 94
Cc1cccc(N2CCN(C(=O)N(C)C)CC2)c1C | 78
N=c1c[n+](N2CCOCC2)[n-]o1 | 94&96
CN(C)c1ccc(/C=C2/C(=O)NC(=O)N(C3CCCCC3)C2=O)cc1 | 97
Cc1cc(C)n(CC/C(N)=N/OC(=O)c2ccccc2)n1 | 93
COc1ccc(C2=CC(=O)C=CC2=O)cc1 | 52*
CC1(C)Cc2ccccc2C(N)=C1C#N | 103
CN(C)c1cc(C(F)(F)F)nc2c(Cl)c(C(C)(C)C)nn12 | 85
COc1cccc(OC)c1OCCNCC1COc2ccccc2O1 (configuration not stated) | 101
CCOC(=O)c1ccccc1NC(=O)C=C(C)C | 96
COc1ccc(-c2nn(CN3CCOCC3)c(=S)n2-c2ccccc2)cc1OC | 92
(continued)
SMILES | RVFV N-RNA inh
Cn1c(=NC(=O)CCS(=O)(=O)c2ccc(F)cc2)sc2cc(F)ccc21 | 102
CC1(C)C(=O)OC(c2c(F)c(F)c(F)c(F)c2F)C2(CCCCC2)C1=O (configuration not stated) | 99
CNCCC(Oc1ccccc1C)c1ccccc1 (configuration not stated) | 101
CC(C)c1cc(N2CCCC2)n2c(nc3ccccc32)c1C#N | 98
CCOC(=O)Cc1ccc(NC(=O)C(F)(F)C(F)F)cc1 | 95
CC(C)CCNC(=O)c1ccco1 | 93
COC(=O)c1c(C)n(-c2ccc(OC)cc2)c2ccc(O)cc12 | 96
CC1CCCCN1C(=O)c1cnc2n(c1=O)CCS2 (configuration not stated) | 97
COC(=O)c1c(C)[nH]c(C)c1C(=O)c1ccccc1Cc1ccccc1 | 99
COc1ccc(CN2CC(C)OC(C)C2)cc1 (configuration not stated) | 95
NC(=S)c1ccc(-c2ccno2)s1 | 93
COc1ccc(N2CCN(C(=S)c3ccccc3)CC2)cc1 | 94
CS(=O)(=O)N1CCN(C(=S)Nc2cccc3ccccc23)CC1 | 96
CC(=O)Nc1ccc(N2C(=O)CC(/C=C3/N(C)c4ccccc4C3(C)C)C2=O)cc1 (configuration not stated) | 104
CC1(C)CC(=O)C2=C(C1)NC(SCC(=O)N1CCOCC1)=C(C#N)C2c1ccco1 (configuration not stated) | 102
Cc1ccc(CC(=O)Nc2nccs2)cc1 | 95
[O-][n+]1cccc(CO)c1 | 105
CCN(CC)c1ccc(NC(=S)Nc2ccc(S(N)(=O)=O)cc2)cc1 | 95
Cc1cccc(N2C(=O)CC(Sc3ncccc3C(=O)O)C2=O)c1C (configuration not stated) | 85
CCOC(=O)c1csc(Nc2ccccn2)n1 | 91
CC(=O)Oc1ccc2c(oc(=O)c3ccccc32)c1C | 89
Cn1c(=O)n2ncnc2c2c3c(sc21)CCCC3 | 84
NCC1(CC(=O)O)CCCCC1 | 90&92
Nn1c(CSc2ccccn2)nnc1CSc1ccccn1 | 97
Cn1c(=O)c2[nH]c(C3CCCC3)nc2n(C)c1=O | 88
The results go on.
SMILES | RVFV N-RNA inh
CCOC(=O)CCc1c(C)c2ccc(OCC(=O)N(CC)CC)c(C)c2oc1=O | 93
CC(C)C(NC(=O)c1ccco1)C(C)C | 98
COc1cc(-c2nnc(SCC(=O)N3CCCC3)o2)cc(OC)c1OC | 100
c1ccc(CCN2CCOCC2)cc1 | 100
CC(C)(C)c1cc2nc(C(F)(F)F)cc(NN)n2n1 | 91
CCc1cc(C(=O)OC)c(NC(=S)Nc2cn(CC)nc2C(N)=O)s1 | 98
Cc1ccc2nc(C)cc(C)c2c1 | 90

Of the compounds above, these contain a carbonyl joined to an NH by a bond outside any ring:
SMILES | RVFV N-RNA inh
C=CCOc1cccc(C(=O)Nc2ncn[nH]2)c1 | 99
O=C(Nc1nnc(-c2ccc3c(c2)OCCO3)o1)c1ccc(NS(=O)(=O)c2ccccc2)cc1 | 100
CCOC(=O)c1oc2ccccc2c1NC(=O)CC | 97
Cc1cc(C(=O)Nc2cccc(COC(=O)c3cc(C)on3)c2)no1 | 93
CCNS(=O)(=O)c1ccc(NC(=O)c2c(-c3ccccc3)noc2C)cc1 | 100
COc1ccc(CC(=O)Nc2c(C)nc3cc(C)ccn3c2=O)cc1 | 95
CC(C(N)=O)N1c2cccc3cccc(c23)S1(=O)=O (configuration not stated) | 95
CCOc1ccccc1C(=O)Nc1cccc(-c2ccc(N3CCOCC3)nn2)c1 | 96
COc1ccc(-c2nc3scc(CCNC(=O)/C=C/c4ccco4)n3n2)cc1 | 110
O=C(NNc1cc(Cl)ccc1Cl)C1CCCS1 (configuration not stated) | 90
CC(NC(=O)c1ccccc1)C(=O)NC1=NCCS1 (configuration not stated) | 104
N#CC(C(=O)NCc1ccc2c(c1)OCO2)c1ccccc1 (configuration not stated) | 95
Cc1cc(C)c(C(N)=O)c(SCC(=O)c2ccccc2)n1 | 94
CCOC(=O)c1ccccc1NC(=O)C=C(C)C | 96
CCOC(=O)Cc1ccc(NC(=O)C(F)(F)C(F)F)cc1 | 95
CC(C)CCNC(=O)c1ccco1 | 93
CC(=O)Nc1ccc(N2C(=O)CC(/C=C3/N(C)c4ccccc4C3(C)C)C2=O)cc1 (configuration not stated) | 104
Cc1ccc(CC(=O)Nc2nccs2)cc1 | 95
CC(C)C(NC(=O)c1ccco1)C(C)C | 98
CCc1cc(C(=O)OC)c(NC(=S)Nc2cn(CC)nc2C(N)=O)s1 | 98
